RE007 growth inh – less growth of the S. pombe RE007 Vpr strain; S. pombe RE007 Vpr strain, BacTiter-Glo ATP luminescence, 24 h; control for the full effect not named in the record; Potency, µM (doses to about 92.2 µM), inactives show at the highest dose activity change, negative = less growth; 360,000 compounds, 0.21% hits; active = well fitted falling curve with a large enough effect; inconclusive = small, poorly fitted or top-dose-only effect; inactive = no such curve, though single readings can be large or run the other way;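 note: % is set by controls: 0 for no effect and ±100 for the full control effect; nearly all actives have a fitted effect of over 50% in size; the assay follows cell death caused by Vpr and the record does not say whether a fall means rescue or toxicity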
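Fission yeast strain RE007, carrying one chromosomally integrated HIV-1 vpr copy, was seeded at OD 0.01 in PMG+AL medium with 23 nL pinned compound. After 24 h at 30 °C and 99% humidity, viability was read by BacTiter-Glo luminescence.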
Cruzain Triton – inhibitors of Trypanosoma cruzi cruzain with detergent. P25779. purified cruzain, Z-FR-AMC fluorescence, 0.01% Triton. Potency, µM, for the others: max response, negative = inhibition, actives largely listed as inhibitors. 200,000 compounds, 0.43% hits. AID 1478;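 note: plate controls were neutral wells for no effect and buffer without enzyme for full effect; nearly all actives have a fitted effect of over 40% in size; top concentration of the series not given in the record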
Target sequence (P25779 123-467 limits assumed): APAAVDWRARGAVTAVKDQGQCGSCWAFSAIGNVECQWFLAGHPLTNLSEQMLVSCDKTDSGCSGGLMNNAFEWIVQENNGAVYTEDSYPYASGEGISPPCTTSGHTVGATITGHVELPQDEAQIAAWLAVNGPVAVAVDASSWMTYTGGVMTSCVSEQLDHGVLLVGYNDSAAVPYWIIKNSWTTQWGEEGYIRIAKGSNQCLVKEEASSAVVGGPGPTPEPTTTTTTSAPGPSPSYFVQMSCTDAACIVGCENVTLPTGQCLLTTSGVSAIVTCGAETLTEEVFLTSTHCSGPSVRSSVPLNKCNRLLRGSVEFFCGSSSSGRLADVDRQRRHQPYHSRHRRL
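Cruzain (1.5 nM) preincubated 15 min at RT with compound in 100 mM sodium acetate pH 5.5, 5 mM DTT, 0.01% Triton X-100. Reaction started with 2 uM Z-FR-AMC; AMC fluorescence (ex 360/em 450 nm) change over 60 s gave rate.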
SARS PLpro yeast – blocks SARS-CoV papain-like protease in a yeast assay; S. cerevisiae expressing SARS-CoV PLpro, growth rescue; control for the full effect not named in the record; Potency, µM (highest dose often 32.9 µM), inactives show at the top dose activity, positive = growth rescue; 330,000 compounds, 0.19% hits; active means well fitted rising curve with a large enough effect; inconclusive means small, poorly fitted or top-dose-only effect; inactive means no such curve, though single readings can be large or run the other way; note: 0% is about no effect; nearly all actives have a fitted effect of over 55% in size; growth read by luminescence after 48 h
NS1 function inh – inhibitors of influenza NS1 protein function. S. cerevisiae slowed by influenza A NS1, growth recovery by OD600. 270,000 compounds, 0.4% hits. Potency, µM (series often up to 46.1 µM), without a hit: top-dose activity, positive = more growth; active means well fitted rising curve with a large enough effect; inconclusive means small, poorly fitted or top-dose-only effect; inactive means no such curve, though single readings can be large or run the other way; note: nearly all actives have a fitted effect of over 50% in size
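Growth recovery, yeast-based: influenza A NS1 expressed in S. cerevisiae causes slow growth, and suppressors are detected by OD600. The parent strain without NS1 is used as positive control.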
StopGo reporter – FMDV 2A StopGo reporter, luciferase signal | human cells with a luciferase reporter of 2A StopGo recoding; control for the full effect not named in the record | Potency, µM (series often up to 57.9 µM), for the others: at the highest dose signal change, negative = less light | 410,000 compounds, 1.2% hits | AID 1159524; active = well fitted falling curve with a large enough effect; inconclusive = small, poorly fitted or top-dose-only effect; inactive = no such curve, though single readings can be large or run the other way; tested in HEK293T cells; note: % is set by controls: 0 for no effect and ±100 for the full control effect; nearly all actives have a fitted effect of over 45% in size; luciferase light after 4 h
LASV entry inh – blocks Lassa virus binding to or entry into cells; Lassa virus pseudotype entry inhibition, cell reporter; control for the full effect not named in the record; Potency, µM (doses to about 37.9 µM), for the others: top-dose activity change, negative = inhibition, hits mostly inhibitors; 300,000 compounds, 1.2% hits; active means well fitted inhibition curve with a large enough effect; inconclusive means small, poorly fitted or top-dose-only effect, or effect the other way; inactive means flat fitted curve, though single readings scatter; tested in HEK293 cells; note: % is set by controls: 0 for no effect and ±100 for the full control effect; nearly all actives have a fitted effect of over 50% in size; luciferase read-out
Marburg entry inh – inhibitors of Marburg virus binding or cell entry; Marburg virus pseudotyped entry inhibition, cell reporter; control for the full effect not named in the record; about a third of the inactives were read at about 46 µM; Potency, µM (series often up to 37.8 µM), for the others: at the top dose activity change, negative = inhibition, actives largely listed as inhibitors; 300,000 compounds, 1.8% hits; AID 540276; active = well fitted inhibition curve with a large enough effect; inconclusive = small, poorly fitted or top-dose-only effect, or effect the other way; inactive = flat fitted curve, though single readings scatter; tested in HEK293 cells; about a fifth of its hits are not listed in these tables; note: % is set by controls: 0 for no effect and ±100 for the full control effect; luciferase read-out
Cruzain noTriton – cruzain (T. cruzi) inhibition without detergent; Potency, µM, for inactives: max response, negative = inhibition, actives largely listed as inhibitors; purified cruzain, Z-FR-AMC fluorescence, no detergent; 200,000 compounds, 2.3% hits; P25779;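 note: plate controls were enzyme without inhibitor for no effect and buffer without enzyme for full effect; nearly all actives have a fitted effect of over 40% in size; top concentration of the series not given in the record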
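Purified cruzain at 1.5 nM, pre-incubated 15 min with compound at room temperature in 100 mM sodium acetate pH 5.5, 5 mM DTT, 0.00005% Triton X-100. Reaction started with 2 uM Z-FR-AMC; AMC fluorescence increase over 60 s gives rate.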
Numbers without * were called inactive; ? = inconclusive; . = not tested or not shown; & = joins results of further samples; [ ] = another dose, or the depositor's remark. Unless noted, calls come from the whole dose curve; as a rule, active = well fitted curve in the direction sought with a large enough effect; inconclusive = small, poorly fitted or top-dose-only effect, or another doubt; inactive = no such curve, though single readings can be large; an effect the other way counts as inactive or inconclusive. Potency is the fitted concentration of half-maximal effect.

The first two compounds (preview)
SMILES	RE007 growth inh	Cruzain Triton	SARS PLpro yeast	NS1 function inh	StopGo reporter	LASV entry inh	Marburg entry inh	Cruzain noTriton
COc1ccc(CN(CCCN2CCOCC2)S(=O)(=O)N(C)C)cc1OC	-8%	5.0%	-1%	-2%	-23%	26%	0%[46.1 µM]	-4%
CCCCc1nn2c(=O)cc(COC(=O)c3cccc(NC(=O)CCc4ccccc4)c3)nc2s1	.	-0.3%	.	.	-28%	?	.	-3%

The listing, previewed entries included:
SMILES	RE007 growth inh	Cruzain Triton	SARS PLpro yeast	NS1 function inh	StopGo reporter	LASV entry inh	Marburg entry inh	Cruzain noTriton
COc1ccc(CN(CCCN2CCOCC2)S(=O)(=O)N(C)C)cc1OC	-8%	5.0%	-1%	-2%	-23%	26%	0%[46.1 µM]	-4%
CCCCc1nn2c(=O)cc(COC(=O)c3cccc(NC(=O)CCc4ccccc4)c3)nc2s1	.	-0.3%	.	.	-28%	?	.	-3%
CC(C)(C)NC(=O)C1Cc2ccccc2CN1C(=O)Nc1cccc(Cl)c1 (stereo not given)	-7%	3.1%	2%	-3%	-13%	5%	2%	-6%
CC1CCN(CCCNC(=O)CCNC(=O)Cn2cnc3ccccc3c2=O)CC1	-8%	.	2%	-6%	-1%	0%	1%[46.1 µM]	.
CN1C(=O)/C(=C/c2ccccc2OCc2ccc(C(=O)O)cc2)NC1=S	-16%	.	0%	9%	-18%	-4%[46.1 µM]	-19%[46.1 µM]	.
COC(=O)CN(c1ccc(OC)cc1OC)S(=O)(=O)c1ccccc1[N+](=O)[O-]	3%	.	1%	-5%	0%	4%	-16%[46.1 µM]	.
CCCOc1ccc(/C=C/c2[nH]c(=O)[nH]c(=O)c2[N+](=O)[O-])cc1OCC	17%	.	1%	2%	?	-4%	5%[46.1 µM]	.
CCCOc1ccc(CC(=O)NCCc2ccccc2)cc1OC	3%	.	2%	-10%	-16%	.	.	.
Cc1cc(C(=O)NNC(=O)/C=C/c2ccccc2Cl)c(C)o1	5%	.	-4%	1%	-18%	.	.	.
CC(=O)N1CCN(C(=O)c2ccc(Cl)c(S(=O)(=O)N3CCc4ccccc43)c2)CC1	0%	.	1%	.	-15%	5%	-6%	.
COc1ccc(N(C)S(=O)(=O)c2ccc(Cl)c(C(=O)NCC(C)(C)N3CCOCC3)c2)cc1	8%	.	0%	.	0%	-1%	?	.
CC(C)c1ccc(/C=N/NC(=O)CC(=O)NCc2ccccc2)cc1	4%	.	-1%	.	-3%	?	14%	.
O=C(N/N=C/c1c(O)n(Cc2ccccc2)c(=O)[nH]c1=O)c1ccccc1	33%	2.7%	21%	?	-14%	25%	13%	6%
Cc1[nH]c2ccccc2c1Cc1nnc(SCC(N)=O)o1	5%	-3.9%	-4%	-4%	-11%	.	.	-8%
CCN(Cc1ccncc1)C(=O)c1ccc(Br)o1	-6%	.	-2%	4%	-30%	.	.	.
Clc1ccc(Cl)c2sc(N3CCOCC3)nc12	-24%	.	.	-3%	35%[activator]	?	-2%[46.1 µM]	.
COc1ccc(Cl)cc1C(=O)Nc1ccc(CN2CCCCC2)cc1	-14%	.	0%	-4%	-16%	-21%[46.1 µM]	?	.
O=C(OCC(=O)N1CCOCC1)c1ccccc1Cc1ccccc1	-4%	-0.5%	18%	-8%	54%[activator]	.	.	2%
O=C(CNS(=O)(=O)c1ccccc1)N/N=C/c1ccc(O)cc1	-6%	.	1%	.	-6%	-5%	-19%[46.1 µM]	.
CCOC(=O)CNC(=O)N1CCCN(S(=O)(=O)c2ccc3c(ccn3CC)c2)CC1	.	-1.7%	.	.	3%	18%[46.1 µM]	.	-8%

A stretch from further up:
SMILES	RE007 growth inh	Cruzain Triton	SARS PLpro yeast	NS1 function inh	StopGo reporter	LASV entry inh	Marburg entry inh	Cruzain noTriton
O=C(OCC(=O)N1CCOCC1)c1ccccc1Cc1ccccc1	-4%	-0.5%	18%	-8%	54%[activator]	.	.	2%
O=C(CNS(=O)(=O)c1ccccc1)N/N=C/c1ccc(O)cc1	-6%	.	1%	.	-6%	-5%	-19%[46.1 µM]	.
CCOC(=O)CNC(=O)N1CCCN(S(=O)(=O)c2ccc3c(ccn3CC)c2)CC1	.	-1.7%	.	.	3%	18%[46.1 µM]	.	-8%

Further results follow:
SMILES	RE007 growth inh	Cruzain Triton	SARS PLpro yeast	NS1 function inh	StopGo reporter	LASV entry inh	Marburg entry inh	Cruzain noTriton
CC(C)C1=NN(C(=O)c2cccnc2)C(O)(C(F)(F)F)C1 (stereo not given)	3%	4.7%	-6%	11%	.	18%	6%	-1%
FC(F)(F)c1ccc(CN2CCNCC2)cc1	-5%	.	-4%	3%	-8%	-1%	?	.
Cc1ccc2cc([N+](=O)[O-])ccc2n1	-11%	.	-1%	-10%	2%	18%	22%[46.1 µM]	.
Cc1cccc(C)c1NC(=S)NC(=O)c1ccc(Br)o1	-21%	.	-2%	2%	-22%	.	.	.
CCOC(=O)CSc1ncnc2c1cnn2-c1ccc(C)cc1	-16%	1.4%	-1%	-1%	15%	-1%	?	28%
N#C/C(=C/c1ccccc1)c1nn(CCO)c(N)c1C#N	7%	-1.6%	-5%	-6%	27%	7%	1%[46.1 µM]	4%
CN(Cc1ccc(F)cc1)C(=O)c1cccc(S(=O)(=O)N2CCN(c3ccc(F)cc3)CC2)c1	10%	.	-3%	.	?	?	?	.
CCOC(=O)c1c(NC(=O)C(C)N2CCN(C(=O)c3ccco3)CC2)sc2c1CCCC2 (stereo not given)	-1%	-1.3%	-22%	25%	?	11µM*	?	?
O=C(/C=C/c1ccc([N+](=O)[O-])cc1)N1CCN(S(=O)(=O)c2cccs2)CC1	6%	.	1%	1%	?	.	.	.
Cn1c(N)c(C(=O)Nc2cccc(Cl)c2)c(=O)n(C)c1=O	-11%	.	1%	4%	5%	24%	?	.
COc1ccc(/C=N/NC(=S)Nc2ccccc2)cc1COc1ccc(F)cc1F	4%	-5.0%	10%	23%	9%	1.6µM*	?	7.9µM*
COc1ccc2c(c1[N+](=O)[O-])CCC/C2=N/OC(=O)c1cccc2ccccc12	4%	-2.2%	3%	-3%	-20%	4%	2%[46.1 µM]	20µM*
COc1ccc(-c2noc(CCCOc3ccccc3)n2)cc1OC	-24%	-2.1%	-13%	-6%	?	?	?	?
O=c1c2c(nc3c(-c4ccccc4)c[nH]n13)CCCC2	3%	1.4%	-1%	-14%	-18%	-1%	-1%	-7%
CC(C)=CCN1CCN(Cc2cnc(C)s2)CC1CCO (stereo not given)	18%	.	-2%	-7%	1%	25%	1%[46.1 µM]	.
O=C1N=c2ccccc2=C1c1sc(=S)n(Cc2ccccc2Cl)c1O	1%	.	0%	4%	0%	23%	-1%[46.1 µM]	.
CN(CC(=O)O/N=C(\N)c1ccccn1)S(=O)(=O)c1ccccc1	5%	5.6%	9%	0%	20%	14%	2%	6%
CCCOC(=O)c1c(NC(=O)c2cc3nc(-c4ccc(OC)cc4)cc(C(F)(F)F)n3n2)sc2c1CCCC2	.	3.4%	.	.	4%	19%[46.1 µM]	.	3%
COc1cc(C2=NOC(C(=O)Nc3c(C)n(C)n(-c4ccccc4)c3=O)C2)cc(OC)c1OC (stereo not given)	-12%	.	-1%	-3%	-1%	.	.	.
CCOC(=O)C1=C(C)Nc2nc(SCC)nn2C1c1ccc(OC)cc1 (stereo not given)	0%	2.6%	-1%	-4%	-25%	9%	8%	-6%
COCC(C)N1CCC(Oc2ccc(C(=O)NCc3ccccn3)cc2)CC1 (stereo not given)	-8%	.	1%	4%	-3%	-16%	7%	.
NC(=S)NN=C(Cc1ccccc1)Cc1ccccc1	0%	.	-1%	-2%	?	?	?	.
COc1ccc(CCNC(=O)c2ccc3c(c2)ncn3-c2ccc(C(C)C)cc2)cc1OC	.	-6.6%	.	.	0%	?	.	16%
CCCCCNC(=O)c1ccc2c(=O)[nH]c3c(C(=O)NCC4CCCO4)sc(=S)n3c2c1 (stereo not given)	6%	-9.3%	10%	-50%	-21%	15%	?	?
Nc1ncc(S(=O)(=O)NCc2ccccc2)cn1	.	-2.5%	.	.	8%	18%[46.1 µM]	.	-11%
COC(=O)c1ccccc1NC(=S)NC(NC(=O)COc1ccccc1)C(Cl)(Cl)Cl (stereo not given)	-7%	-11%	-10%	?	7%	-6%	?	7%
Cc1cc(OCC(=O)NC2CC(C)(C)NC(C)(C)C2)c(C)cc1Br	4%	.	1%	8%	-8%	-11%	?	.
COCc1cc(CN2CCCC2)c(O)c2ncccc12	-7%	3.1%	0%	0.71µM*	.	?	26µM*	?
CCOC(=O)C1CCN(C(=O)c2ccc(C)o2)CC1	14%	.	2%	.	-7%	12%[46.1 µM]	12%	.
N#CCN1CCC/C1=C\[N+](=O)[O-]	-17%	-10%	6%	1%	.	5%	10%	-6%
Cc1cccc(N2C(=O)CC(Sc3nccc(C)n3)C2=O)c1 (stereo not given)	-13%	.	-6%	0%	-10%	-4%	11%&11%	.
Cc1cc(C)n(C(=O)c2cccc(S(=O)(=O)N3CCOCC3)c2)n1	-6%	-2.2%	1%	-7%	16%	-14%	?	6%
O=C(CSc1ccc2ccccc2n1)c1ccc2c(c1)OCO2	-6%	-3.8%	-6%	-4%	5%	?	56%	-9%

Reprinted at random: 4 records from the list, in no set order.
SMILES	RE007 growth inh	Cruzain Triton	SARS PLpro yeast	NS1 function inh	StopGo reporter	LASV entry inh	Marburg entry inh	Cruzain noTriton
CC(=O)N1CCN(C(=O)c2ccc(Cl)c(S(=O)(=O)N3CCc4ccccc43)c2)CC1	0%	.	1%	.	-15%	5%	-6%	.
CCCOc1ccc(CC(=O)NCCc2ccccc2)cc1OC	3%	.	2%	-10%	-16%	.	.	.
CC(C)c1ccc(/C=N/NC(=O)CC(=O)NCc2ccccc2)cc1	4%	.	-1%	.	-3%	?	14%	.
CN1C(=O)/C(=C/c2ccccc2OCc2ccc(C(=O)O)cc2)NC1=S	-16%	.	0%	9%	-18%	-4%[46.1 µM]	-19%[46.1 µM]	.

An unsorted share of the library; overall some 4.8% were active at least once.
